Assay outcomes from PubChem BioAssay.
CtBP-E1A inh – CtBP/E1A binding inhibition. 340,000 tested, 0.49% active. AlphaScreen GST-E1A/His-CtBP binding, 1536-well; active compounds read low; control for the full effect not named in the record. activity change, % (no concentration beside the values); in the data active means activity change below about -65%; inconclusive means about -30% to -65%; inactive means above about -30%; note: % is set by controls: 0 for no effect and ±100 for the full control effect
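AlphaScreen with 125 nM GST-E1A and 125 nM His-CtBP (5X stocks) in Tris pH 8.0, 300 mM NaCl, BSA, Tween 20, TCEP. Compounds preincubated 2 h at 37 deg C, then glutathione donor/nickel acceptor beads added for 1 h at 37 deg C in dark.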
TRPML1 inh – human mucolipin-1 channel inhibition | Q9GZU1 | TRPML1-inducible cells, Ca2+ dye fluorescence, FDSS; active compounds read low; inhibition of EC80 agonist-evoked calcium signal | activity change, negative = inhibition, % (test concentration not listed) | 390,000 tested, 0.02% active | AID 624415; in the data active means activity change below about -50%; inconclusive means about -30% to -50%; inactive means above about -30%;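 note: stimulus is agonist 54-4 at its EC80 concentration; % is set by controls: 0 for no effect and ±100 for the full control effect; compound concentration not given in the record; the text of the record puts the active cut at -80%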
Target sequence (Q9GZU1 whole entry, looked up): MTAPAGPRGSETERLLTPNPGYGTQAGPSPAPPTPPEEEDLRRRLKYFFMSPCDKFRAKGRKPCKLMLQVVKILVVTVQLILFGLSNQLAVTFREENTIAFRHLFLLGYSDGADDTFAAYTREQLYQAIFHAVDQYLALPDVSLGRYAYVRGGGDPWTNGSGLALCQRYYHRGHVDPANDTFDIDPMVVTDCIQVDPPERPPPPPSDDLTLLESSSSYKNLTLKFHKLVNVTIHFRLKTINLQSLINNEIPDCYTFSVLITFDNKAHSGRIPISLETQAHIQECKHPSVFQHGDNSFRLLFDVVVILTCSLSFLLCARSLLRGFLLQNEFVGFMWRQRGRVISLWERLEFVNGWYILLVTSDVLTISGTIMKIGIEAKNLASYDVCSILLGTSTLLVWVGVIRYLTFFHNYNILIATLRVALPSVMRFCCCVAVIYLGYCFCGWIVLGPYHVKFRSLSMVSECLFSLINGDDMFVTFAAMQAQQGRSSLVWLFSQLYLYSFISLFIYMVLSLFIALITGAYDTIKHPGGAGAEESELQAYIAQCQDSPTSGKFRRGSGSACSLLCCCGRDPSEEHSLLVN
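Tet-induced TRPML1-DL cells loaded with Ca8 no-wash calcium dye were read kinetically on FDSS. Compound addition was followed by EC80 agonist 54-4 (4 uM final); inhibition was read over 110 s.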
Six1-Eya2 blk – blocks human Six1 binding to Eya2; AID 651725; activity change, % (no concentration beside the values); 360,000 tested, 0.56% active; Q15475+O00167; AlphaScreen GST-Six1/His-Eya2 binding, biochemical; active compounds read low; control for the full effect not named in the record; in the data active = activity change below about -65%; inconclusive = about -30% to -65%; inactive = above about -30%; note: % is set by controls: 0 for no effect and ±100 for the full control effect
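Homogeneous AlphaScreen proximity assay pairing GST-Six1 with His-tagged Eya2 (added as 5X mix: 250 nM and 500 nM) in 50 mM Tris pH 8.0, 300 mM NaCl, 1 mM TCEP. Glutathione donor and nickel acceptor beads; 1 h, 37 °C, dark.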
TRPML1 ag – agonists of human TRPML1 channel; Q9GZU1; TRPML1-expressing cells, Ca2+ dye fluorescence, FDSS; host cell line not named in the record; reference of the full effect not given here; activation, % (concentration not given with the values); 410,000 tested, 0.12% active; AID 624414; in the data active = activation above about 50%; inconclusive = about 30% to 50%; inactive = below about 30%; note: 0% is about no effect; the text of the record puts the active cut at 80%
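Kinetic FDSS Ca2+ read in Tet-induced TRPML1-DL cells (ABD Ca8 dye plus quencher, 45-90 min RT loading): baseline, then compound, then 110 s agonist window; EC80 agonist 54-4 at 4uM final added afterwards for a 110 s antagonist window.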
PINK1 expr mod – changes PINK1 expression. PINK1 immunofluorescence, high-content cytometry, 24 h. Potency, µM (doses to about 76.6 µM), without a hit: at the top dose activation (PINK1 increase), usual class: activators. 410,000 tested, 0.2% active. AID 624263; active = well fitted activation curve with a large enough effect; inconclusive = small, poorly fitted or top-dose-only effect; inactive = flat fitted curve, though single readings scatter; cell line not stated here;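 note: potency is the fitted concentration of half-maximal effect; % of control where 0% means no effect; nearly all actives have a fitted effect of over 65% in size; a mitochondrial uncoupler was the plate control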
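Stable cell line treated 24 h with compounds at 5 concentrations (CCCP controls), then fixed and immunostained for PINK1 plus nuclear and cell stains; PINK1 immunofluorescence quantified by laser-scanning microplate cytometry.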
D2 ag – human D2 receptor agonism in beta-arrestin assay. DiscoveRx PathHunter D2 beta-arrestin, luminescence, 90 min; 100% = 57 uM dopamine signal. activation, % (no concentration beside the values). 360,000 tested, 0.084% active. AID 624465; in the data active = activation above about 40%; inconclusive = about 15% to 40%; inactive = below about 15%; note: compound concentration not given in the record; the text of the record calls up to 30% inactive
Target sequence (P14416 whole entry, looked up): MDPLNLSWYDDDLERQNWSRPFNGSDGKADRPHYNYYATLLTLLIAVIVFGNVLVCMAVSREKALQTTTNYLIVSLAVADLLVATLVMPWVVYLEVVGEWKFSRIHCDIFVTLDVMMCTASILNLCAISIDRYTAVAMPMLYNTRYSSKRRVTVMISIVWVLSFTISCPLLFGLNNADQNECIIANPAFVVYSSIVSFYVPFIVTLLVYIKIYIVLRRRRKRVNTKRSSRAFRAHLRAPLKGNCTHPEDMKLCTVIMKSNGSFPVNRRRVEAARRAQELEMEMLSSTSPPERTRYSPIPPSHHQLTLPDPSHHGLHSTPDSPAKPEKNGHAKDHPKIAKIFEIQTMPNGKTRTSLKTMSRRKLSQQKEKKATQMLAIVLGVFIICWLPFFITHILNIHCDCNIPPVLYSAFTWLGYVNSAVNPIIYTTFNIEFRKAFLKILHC
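Agonist mode: compounds alone added to overnight-plated D2 PathHunter cells for 90 min at 37 C, with 57 uM final dopamine (EC100) defining full response. Beta-arrestin recruitment detected by chemiluminescent reagent, read after 1 h at ambient temperature.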
Starred values were filed as active, the others as inactive; ? = inconclusive; nt = not tested or not shown; [ ] = dose if it differs, or a comment.

Value order: CtBP-E1A inh	TRPML1 inh	Six1-Eya2 blk	TRPML1 ag	PINK1 expr mod	D2 ag
- Cc1cccc(CCNC(=O)C2CCN(c3ncnc4c3nc3n4CCCCC3)CC2)c1
    nt	-3	nt	-0.1	4.4%	nt
- CN(C)C(=O)c1ccc2c(c1)C1C3CCC(C3)C1C(c1ccccc1)N2 (stereo not given)
    nt	13	-5	1.0	1.1%	-6.2
- COc1ccccc1NC(=O)c1ccc([N+](=O)[O-])o1
    -3	12	-2	2.1	-0.2%	1.0
- CC(C)c1ccc(S(=O)(=O)N2CCN(C(=O)c3cc(-c4ccccc4)n[nH]3)CC2)cc1
    2	13	-1	4.2	5.5%	-0.2
- O=C(C1COc2ccccc2O1)N(Cc1cccnc1)c1nc2c(F)cc(F)cc2s1 (stereo not given)
    nt	-6	nt	3.4	-1.0%	nt
- Cc1[nH]c2c(C)cccc2c1CC(=O)O
    -1	-8	-8	-0.1	-0.9%	1.3
- CCCCn1nc(C(=O)N(CC)CC(=O)Nc2c(F)cccc2F)c2ccccc2c1=O
    5	24	4	2.8	0.2%	5.3
- N#Cc1ccc(-c2ccc(OCC(=O)NCCc3ccccc3)cc2)cc1
    7	17	3	3.0	-1.9%	3.7
- CCNC(=O)NC(=O)COC(=O)c1cccc(NS(=O)(=O)/C=C/c2ccccc2)c1
    -9	31	-7	1.7	-0.4%	3.0
- CC(=O)Nc1ccc2[nH]ccc2c1
    nt	-13	3	0.1	0.8%	-2.9
- CS(=O)(=O)Cc1nc2ccccc2oc1=O
    -5	-10	1	1.2	-1.9%	2.2
- COc1ccc(Br)cc1C1Sc2ccccc2NC2=C1C(=O)c1ccccc12 (stereo not given)
    nt	-9	nt	-0.2	5.6%	nt
- Cc1ccc(NC(=S)N2CCCCC2CO)cc1C (stereo not given)
    11	-14	0	-1.0	5.5%	-3.3
- O=C(c1ccc(Br)o1)N(Cc1ccccc1)c1ccccn1
    11	-17	-1	-0.2	-0.7%	?
- CCOc1ccc(C(=O)/C=C/Nc2ccc(S(=O)(=O)Nc3onc(C)c3C)cc2)cc1
    -25	8	-26	1.1	-0.1%	-0.3
- O=C(c1ccc([N+](=O)[O-])s1)N1CCc2ccccc2C1
    -14	28	-2	-0.3	2.5%	8.2
- N/C(=N\OC(=O)c1cccc(Cl)c1)c1ccccn1
    2	10	-11	0.5	-3.5%	8.8
- Cn1nnnc1SCC(=O)NC1CCCc2ccccc21 (stereo not given)
    5	?	2	-0.5	0.4%	0.2
- COc1ccc(OC)c(S(=O)(=O)NC(=O)C2(C)CCN2C(=O)c2ccco2)c1 (stereo not given)
    -1	nt	5	-0.8	1.0%	-6.1
- Cc1ccc(CN2CCC(CNC(=O)Nc3cccc(Cl)c3C)C2)cc1 (stereo not given)
    nt	-7	nt	-1.2	-0.4%	nt

Grouped by structure: the entries above with fluorine
Value order: CtBP-E1A inh	TRPML1 inh	Six1-Eya2 blk	TRPML1 ag	PINK1 expr mod	D2 ag
- O=C(C1COc2ccccc2O1)N(Cc1cccnc1)c1nc2c(F)cc(F)cc2s1 (stereo not given)
    nt	-6	nt	3.4	-1.0%	nt
- CCCCn1nc(C(=O)N(CC)CC(=O)Nc2c(F)cccc2F)c2ccccc2c1=O
    5	24	4	2.8	0.2%	5.3

The results go on:
Value order: CtBP-E1A inh	TRPML1 inh	Six1-Eya2 blk	TRPML1 ag	PINK1 expr mod	D2 ag
- COc1ccc(NC(=O)C(CC(=O)O)C(C)c2ccccc2)cc1 (stereo not given)
    6	41	12	1.8	-0.2%	-1.5
- Clc1ccccc1N=Nc1ccccn1
    -2	-3	?	3.1	1.3%	-10
- N#C/C(=C\c1ccc(-c2ccc(Br)cc2)o1)C(=O)Nc1ccccc1O
    nt	-26	nt	0.9	8.1%	nt
- Cc1cccc(N2CCN(C(=S)c3ccccc3)CC2)c1
    -12	-26	-7	1.2	8.9%	-1.5
- CCn1nnc2cc(C(=O)Nc3cc(S(C)(=O)=O)ccc3Cl)ccc21
    8	-15	-2	-0.2	-0.5%	-0.5
- Cc1cc(C)cc(OCCNC(=O)c2cc(S(=O)(=O)N3CCOCC3)ccc2F)c1
    4	6	-3	0.9	0.8%	-0.7
- CCc1ccc(NC(=O)CSCc2nc(N)nc(Nc3ccccc3CC)n2)cc1
    -4	-17	0	3.0	-0.6%	2.1
- Clc1ccc2c(NCCNC3CCCCC3)ccnc2c1
    -21	-4	5	1.8	-4.6%	1.9
- Cc1cccc(NC(=S)NCC(C)CSc2ccc(Cl)cc2)c1 (stereo not given)
    nt	8	-11	0.7	?	-1.7
- COc1ccc(NC(=O)NCc2cccnc2)cc1
    1	42	0	0.0	3.2%	-0.8
- NC(=O)CSc1nc2c(sc3ccccc32)c(=O)n1CCCC(=O)NCC1CCCO1 (stereo not given)
    6	4	2	13	2.2%	3.5
- COc1cc(C(=O)NC2CCN(Cc3nnnn3Cc3cccs3)CC2)cc(OC)c1OC
    -2	1	3	-1.1	2.2%	-0.2
- O=C(O)CC1SC(=Nc2cccc(C(F)(F)F)c2)NC1=O (stereo not given)
    5	54	4	3.0	1.3%	-0.4
- CCC(=O)N1CCc2cc(S(=O)(=O)NCCN3CCCCC3CC)ccc21 (stereo not given)
    -2	13	-1	1.2	-2.5%	-3.5
- O=C(CCc1ccccc1)Nc1ccc2c(c1)OCCO2
    -1	-4	-7	0.7	7.0%	-0.8
- CN1CCCC(OC(=O)CCCC(=O)OC2CCCN(C)C2)C1 (stereo not given)
    -2	4	11	-0.6	-1.4%	-4.4
- CN(C)/C(=N\S(=O)(=O)c1ccccc1)c1ccc([N+](=O)[O-])cc1
    -19	-1	-8	0.1	1.5%	-5.8
- Nc1nc(-c2c(Cl)cccc2Cl)no1
    nt	-2	11	-0.6	-0.4%	3.5
- CCCn1c(=O)c(C#N)cn(C2CC2)c1=O
    -2	14	3	-0.4	0.2%	-3.9
- COc1ccc(C2=NN(C(=O)CSc3cn(C)c4ccccc34)C(c3ccc(OC)cc3)C2)cc1 (stereo not given)
    -1	-14	-21	0.1	-0.1%	3.5

Laid out differently: two of the compounds above.
mol | CtBP-E1A inh | TRPML1 inh | Six1-Eya2 blk | TRPML1 ag | PINK1 expr mod | D2 ag
Cc1ccc(CN2CCC(CNC(=O)Nc3cccc(Cl)c3C)C2)cc1 (stereo not given) | nt | -7 | nt | -1.2 | -0.4% | nt
COc1ccc(NC(=O)C(CC(=O)O)C(C)c2ccccc2)cc1 (stereo not given) | 6 | 41 | 12 | 1.8 | -0.2% | -1.5

Later entries:
Value order: CtBP-E1A inh	TRPML1 inh	Six1-Eya2 blk	TRPML1 ag	PINK1 expr mod	D2 ag
- COC(=O)c1ccc(-c2ncc(-c3cccc4ccccc34)o2)cc1
    8	2	9	1.0	1.4%	-1.6
- Cc1ccc(C23CC4CC(CC(C(=O)N5CCOCC5)(C4)C2)C3)cc1
    6	4	3	-0.9	-1.5%[38.3 µM]	0.8
- Cc1noc(C(=O)Nc2cccc(O)c2)c1Cl
    -24	1	3	-0.4	2.4%	-1.1
- Cc1ccc(CNC(=O)CCS(=O)(=O)c2ccc3c(c2)NC(=O)C(C)S3)cc1 (stereo not given)
    -10	24	5	1.1	-0.6%	9.3
- CCc1ccc(S(=O)(=O)Nc2cc(-c3cn4ccccc4n3)ccc2C)cc1
    nt	-11	nt	-0.4	0.6%	nt
- CCc1ccc(OCc2nc(-c3ccccn3)no2)c(Br)c1
    11	0	2	1.0	4.6%[38.3 µM]	-1.6
- COc1ccccc1N=Nc1c(C)n[nH]c1C
    -5	4	-1	2.9	-3.0%	2.8
- Nc1ccc(C(=O)N2CCN(S(=O)(=O)c3ccc(Cl)cc3)CC2)cc1[N+](=O)[O-]
    -4	0	-27	-0.3	-1.1%	14
- O=C(NC(c1cccnc1)c1ccc2c(c1)OCO2)C1CCN(CCOc2ccc(Cl)cc2Cl)CC1 (stereo not given)
    -11	nt	-13	1.6	0.9%	-3.8
- Cc1cccc(N2CCN(C(=O)NCc3ccc(Cl)cc3)CC2)c1
    6	-4	1	-0.1	13%[38.3 µM]	-3.1
- CCOC(=O)Cn1nnc2c(sc3nc4c(c(-c5ccccc5)c32)CCC4)c1=O
    -1	10	4	0.8	3.3%	0.5
- C=CCSc1nc2ccsc2c(=O)n1-c1cccnc1
    nt	24	4	0.4	1.2%	2.6
- Cc1c(C(=O)N2CCCC2)oc2ccc(Br)cc12
    6	-4	3	1.8	2.6%	6.6
- COc1ccc(NS(=O)(=O)c2cc(NC(=O)c3ccc(S(=O)(=O)N(C)C)cc3)ccc2N2CCOCC2)cc1
    -2	-17	-7	0.1	-0.4%	6.0
- Cc1nn(C(=O)c2c(-c3ccccc3)noc2C)c(C)c1N=Nc1cc(C(F)(F)F)cc(C(F)(F)F)c1
    nt	-7	-8	4.9	2.5%	1.0
- Cc1ccc(S(=O)(=O)N2CCCN(c3nccc(C(F)(F)F)n3)CC2)cc1
    8	35	-3	1.3	2.3%	-6.7
- CCOc1ccc(CCNC(=O)COC(=O)c2[nH]c(C)c(C(C)=O)c2C)cc1OCC
    -1	-22	17	1.5	1.6%	-14
- COc1ccc(NC(=O)CSc2nc3cc(OC)c(OC)cc3c3nc(-c4ccccc4)nn23)cc1Cl
    nt	-11	nt	-0.8	1.5%	nt
- COc1ccc2oc(C(=O)OCC(=O)NC(=O)NC(C)C)c(C)c2c1
    -3	-3	-1	0.4	nt	-0.4
- CN1CCN(C(=O)N2c3ccccc3CCc3ccccc32)CC1
    -1	16	4	4.9	0.3%	-4.1
- CC1=C(C(=O)Nc2ccccc2C)C(c2ccc(C)o2)NC(=S)N1 (stereo not given)
    10	3	3	2.2	1.1%	-0.4
- CCOc1ccccc1CN1CCNC(=O)C1CC(=O)NCCCn1cccn1 (stereo not given)
    1	-17	4	-0.1	-1.1%	-1.4
- Cc1ccc(NC(=O)COC(=O)Cn2nc(-c3ccc(F)cc3)oc2=O)cc1C
    4	-6	3	-0.1	2.2%	0.5
- CCOc1cccc2sc(=NC(=O)c3ccco3)n(CC(=O)OC)c12
    -5	25	2	0.8	4.8%	1.3
- CCCNC(=O)Cc1c(O)c2ccccc2[nH]c1=O
    1	14	-8	0.2	0.3%	-2.2
- C[C@H](CO)N1C[C@H](C)[C@@H](CN(C)C(=O)Nc2cccc3ccccc23)OCCCC[C@H](C)Oc2ccc(NS(=O)(=O)c3cn(C)cn3)cc2C1=O
    -2	-23	1	-0.2	3.4%	-5.8
- CCN(CC)Cc1c(C(=O)N/N=C/c2ccncc2)nnn1-c1nonc1N
    1	5	-1	0.0	2.6%	-6.8
- Cc1cc2occ(CC(=O)N(C)CC(=O)Nc3ccc(F)cc3)c2cc1C
    -20	-2	2	2.5	4.3%	-1.2
- CN(C)S(=O)(=O)N1CCC(Oc2ccc(C(=O)NC3CCOC(C)(C)C3)cc2)CC1 (stereo not given)
    1	-8	-2	-0.6	-0.1%	-1.2
- O=c1c2sc(-c3ccccc3)cc2nc2n1CCC2
    4	-7	-7	0.3	0.9%	4.4
- COc1cc2c(Cc3ccccc3)cncc2cc1O
    1	15	-1	1.3	-1.7%	1.3
- S=C(c1c[nH]c2ccccc12)N1CCOCC1
    16	3	13	-0.6	2.0%	7.7
